# KCNQ2 enhance: potentiators of rat KCNQ2 potassium channel. CHO-K1 KCNQ2, FluxOR thallium flux fluorescence; stronger effect = higher value. B-score at 10 µM. 310,000 compounds, 0.54% hits. AID 2239, 2010;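 active = fluorescence ratio B-score at least 3 SD of library B-scores, with initial fluorescence B-score within 3 SD, cut at about 5.3 in these data; same plate scores as AID 2156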;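 also: B-score of peak minus minimum over baseline fluorescence ratio after K+ and Tl+ stimulus; positive B-score means potentiation of KCNQ2 with more thallium influx and brighter signal; only the inactives scoring about 0 or higher are listed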
# Target sequence (O88943 whole entry, looked up): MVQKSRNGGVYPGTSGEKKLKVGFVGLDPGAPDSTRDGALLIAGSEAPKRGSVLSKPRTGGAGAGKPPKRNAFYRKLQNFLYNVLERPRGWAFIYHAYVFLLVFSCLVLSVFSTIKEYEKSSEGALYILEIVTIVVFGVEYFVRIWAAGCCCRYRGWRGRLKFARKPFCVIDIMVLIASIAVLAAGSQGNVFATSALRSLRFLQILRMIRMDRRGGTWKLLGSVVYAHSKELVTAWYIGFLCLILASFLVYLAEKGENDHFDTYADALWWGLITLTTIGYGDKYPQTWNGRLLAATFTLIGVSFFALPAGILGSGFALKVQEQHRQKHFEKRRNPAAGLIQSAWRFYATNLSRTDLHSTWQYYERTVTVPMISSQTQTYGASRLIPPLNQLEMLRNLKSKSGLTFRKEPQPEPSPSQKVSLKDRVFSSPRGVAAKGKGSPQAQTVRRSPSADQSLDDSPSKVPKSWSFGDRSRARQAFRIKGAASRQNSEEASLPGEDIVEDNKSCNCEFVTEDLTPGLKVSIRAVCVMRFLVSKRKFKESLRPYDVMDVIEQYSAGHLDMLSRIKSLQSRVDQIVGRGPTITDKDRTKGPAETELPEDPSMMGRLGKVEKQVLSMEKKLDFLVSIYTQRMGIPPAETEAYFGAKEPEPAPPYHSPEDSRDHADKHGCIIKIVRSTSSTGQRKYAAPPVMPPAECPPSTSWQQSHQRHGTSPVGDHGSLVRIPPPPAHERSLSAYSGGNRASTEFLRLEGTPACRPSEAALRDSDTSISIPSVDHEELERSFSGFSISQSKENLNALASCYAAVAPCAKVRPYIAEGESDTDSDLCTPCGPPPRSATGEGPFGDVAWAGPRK
# KCNQ2 enhance baseline: second read-out of KCNQ2 enhance, no call of its own (marks repeat the call); B-score; compound at 10 µM; measured here: initial fluorescence intensity artifact check;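 brightness before thallium and not channel activity; 0 = typical well and far values either way flag optical interference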
# * hit, by the source's call. These rows are one share of the data (hit frequency here may not be typical).
# The opening 3 entries, to show the layout:
compound	KCNQ2 enhance	KCNQ2 enhance baseline
COc1ccc(NC(=O)OCC(C)C)cc1OC	0.85	2.2
O=C(N=C1SCC(=O)N1c1ccccc1Cl)c1ccccc1	0.54	-0.6
COc1cc(C(=O)NC2CCCCC2)ccc1OC1CCN(C(C)=O)CC1	0.05	-1.1

# Results, previewed entries included:
compound	KCNQ2 enhance	KCNQ2 enhance baseline
COc1ccc(NC(=O)OCC(C)C)cc1OC	0.85	2.2
O=C(N=C1SCC(=O)N1c1ccccc1Cl)c1ccccc1	0.54	-0.6
COc1cc(C(=O)NC2CCCCC2)ccc1OC1CCN(C(C)=O)CC1	0.05	-1.1
CCC(=O)Nc1cc(C(=O)NCC2CCCN2CC)c(OC)cc1N(C)C (stereo unspecified)	1.5	-0.06
CC1CCCC(C)N1NC(=O)Cc1ccccc1 (stereo unspecified)	0.91	0.87
CC(NC(=O)c1cccs1)c1ccc2c(c1)OCO2 (stereo unspecified)	0.93	-0.01
C/C(=N\Nc1nnc2c3ccccc3n(C)c2n1)c1ccc(C)o1	0.02	-1.2
COc1ccc(NS(=O)(=O)c2ccc(NS(=O)(=O)c3cccs3)cc2)cc1	0.3	0.32
O=C(Nc1ccccc1Cl)N1CCN(c2ccc3nnc(-c4ccc(F)cc4)n3n2)CC1	0.92	-0.02
Cc1ccc(C(=O)NCCNC(=O)c2cnccn2)cc1	1.2	1.3

# Other records
compound	KCNQ2 enhance	KCNQ2 enhance baseline
CCN(CC)S(=O)(=O)c1ccc(C(=O)NNc2nc(-c3ccccc3)c3cc(Br)ccc3n2)cc1	2.5	0.14
CN(C)C(=O)Nc1ccccc1CC[N+](=O)[O-]	0.76	0.25
COCc1[nH][nH]c(=O)c1C=Nc1ccc(C(F)(F)F)cc1	0.46	0.31
CCCCN(C(=O)CSc1nnc(-c2ccc(OC)cc2)n1CC)c1c(N)n(Cc2ccccc2)c(=O)[nH]c1=O	0.42	0.29
CC(C)C(NC(=O)CNC(=O)OC(C)(C)C)C(=O)NCc1ccccc1 (stereo unspecified)	0.07	0.11
COc1ccc(C(=O)Nc2nnc(-c3ccccc3)s2)cc1	0.46	-0.05
COc1ccc(C/C(C)=N\NC(=O)c2c[nH]c3ccccc23)cc1OC	0.84	1.7
CCn1c(SCC(=O)N/N=C/c2ccc(C)s2)nc2ccccc21	0.37	-0.31
Cc1ccc(C(=O)N/C(=C/c2ccco2)C(=O)OCN2C(=O)c3ccccc3C2=O)cc1	0.67	-0.92
CCc1nnc(NC(=O)CSc2nnc(Cc3ccc(OC)cc3)o2)s1	1.2	-0.41

# The list goes on.
compound	KCNQ2 enhance	KCNQ2 enhance baseline
C[C@]12CC[C@@H]3c4ccc(O)cc4C(=O)C[C@H]3[C@@H]1CC[C@@H]2O	1.8	-1.1
CC1(C)CC(NC(=O)N2c3ccccc3Sc3ccccc32)CC(C)(C)N1	1.5	0.89
Cn1c(SCC(=O)N2CCOCC2)nnc1-c1cccc(NC(=O)c2ccccc2)c1	1.7	-0.69
CCCNNC(=O)C(O)(c1ccccc1)c1ccccc1	0.2	1.4
Cc1ccc(-c2nc3ccccc3s2)cc1NC(=S)NC(=O)c1ccccc1	1.6	0.58
CN1CCN(C(=O)/C(=C\c2ccccc2)c2ccccc2)CC1	1.4	0.99
Clc1cc(Br)ccc1OCCCn1ccnc1	1.1	-0.19
NC(=O)CCN1CCN(Cc2nc(C(c3ccccc3)c3ccccc3)no2)CC1	0.7	2.4
C=CCOc1ccc(-c2n[nH]c(=S)o2)cc1	1.2	0.03
O=C(Nc1cccc(C(=O)O)c1)Nc1ccccc1Cl	2.8	-1.8

# (listing goes on)
compound	KCNQ2 enhance	KCNQ2 enhance baseline
CCOP(=O)(OCC)c1nc(-c2ccccc2)oc1N1CCCCC1	0.53	-0.76
CCc1c(C)sc(NC(=O)c2cc(C)on2)c1C#N	1.9	-1.2
COc1cccc(CNS(=O)(=O)c2ccc3c(c2)C(C)(C)C(=O)N3C)c1	1.4	0.3
O=C(COc1ccccc1)Nn1c(-c2ccccc2)nc2ccccc2c1=O	1.4	-0.17
CC(C)(C)c1ccc(OCC(O)CN(CCO)CC(O)Cn2ccc3ccccc32)cc1 (stereo unspecified)	2.4	-3
COc1ccccc1NC(=O)/C(=C/c1ccncc1)NC(=O)c1ccccc1	0.1	1.2
CNC(=O)NC(=O)CSc1ccc(NC(C)=O)cc1	0.01	-0.63
CC(C)(C)c1cc(CCC(=O)NCCc2ccccn2)cc(C(C)(C)C)c1O	0.55	-1.6
COc1ccc(NC(=O)CN2CCN(CC(=O)Nc3ccc(OC)cc3)CC2)cc1	1.3	-2
Cc1nn(CC(=O)Nc2ccccc2)c(=O)c2ccccc12	0.79	-1.2

# Remaining list, next part
compound	KCNQ2 enhance	KCNQ2 enhance baseline
CCOC(=O)C1CCN(c2ncnc3c2cnn3C)CC1	0.49	-2.6
CSc1nnc(NC(=O)c2ccc(S(=O)(=O)N3CCOCC3)cc2)s1	0.16	0.07
Cc1onc(-c2ccccc2)c1C(=O)N(Cc1ccco1)Cc1cccs1	0.39	0.43
CN(C)S(=O)(=O)c1ccc(C(=O)OCC(=O)c2ccc(OC(F)F)cc2OC(F)F)cc1	0.03	-2.1
COCCn1c(C)cc(C(=O)COC(=O)/C=C/c2cccc(OC)c2)c1C	0.01	0.94
Cc1ccc2cc(CN(CC(C)C)C(=O)C3CCCO3)c(=O)[nH]c2c1 (stereo unspecified)	0.54	-1.8
COc1ccc(N2CCN(C(=O)c3ccc4c(c3)NC(=O)C(CSCc3cccc(F)c3)N4)CC2)cc1 (stereo unspecified)	0.24	-0.04
O=C(CCc1nnc2n(Cc3ccc(Cl)cc3)c(=O)c3ccccc3n12)NCCCN1CCOCC1	0.65	1.2
CCCS/C(N)=N/N=C/c1cc(C)ccc1O	1.1	1.1
Cc1ccc(C(C)C)c(OCC(O)CN2CCN(CCO)CC2)c1 (stereo unspecified)	0.22	-3.6

# Next entries follow.
compound	KCNQ2 enhance	KCNQ2 enhance baseline
O=C(O)C1=C[C@@H](C2CCCCC2)C[C@@H](OCCCCO)O1	0.99	-0.39
Cc1ccccc1NC(=O)Cn1c(O)c(N=NC(=O)c2ccccc2O)c2ccccc21	0.61	-0.42
O=C(Cc1ccc(F)cc1)N1CCC2(CC1)NCCc1[nH]cnc12	0.69	-1.4
COc1ccccc1N1CCN(S(=O)(=O)c2ccc(-n3cnnn3)c(C)c2)CC1	0.06	-0.98
O=c1c2ccccc2oc2ncccc12	1.9	0.74
O=C(Nc1ccc(F)cc1)c1ccc2nsnc2c1	1.8	-0.63
Cc1ccc(S(=O)(=O)/N=C(\CN2CCCCC2)N2CCOCC2)cc1	1.4	-1.1
O=C(Nc1ccc(F)cc1F)c1cncc(Br)c1	1.1	-0.55
O=C(CSc1nnc(NC(=O)C2CC2)s1)NCc1cccs1	0.21	-0.5
CCCn1c2ccccc2c2cnn(CC(=O)NCCCN3CCCCC3CC)c(=O)c21 (stereo unspecified)	0.65	-0.86

# Carrying on.
compound	KCNQ2 enhance	KCNQ2 enhance baseline
Cc1ccc(-n2nnnc2SCn2nnc3ccccc3c2=O)c(C)c1	0.07	2.2
CCOC(=O)C1CCN(C(=O)C2CCN(S(=O)(=O)c3cccc4nsnc34)CC2)CC1	2.3	0.92
Cc1nn(C)cc1CN(C)C(=O)c1cc2nc(-c3ccco3)cc(C(F)(F)F)n2n1	0.02	0.66
CCCN1C(=O)/C(=C\C=C2/Sc3ccccc3N2CCO)SC1=S	0.65	0.43
COCCCNCCOc1cc(C(C)C)ccc1C	0.07	2.2
CC(=O)Oc1ccc(-c2ccc(C(=O)O)cc2)cc1	0.73	0.61
O=C(NCCN1CCOCC1)c1ccc([N+](=O)[O-])cc1[N+](=O)[O-]	1.1	0.51
CCOc1ccc(-c2cc(N3C(=O)Nc4ccccc4N3O)on2)cc1	1.2	-0.92
O=C(Oc1ccc(N(C(=O)c2ccncc2)S(=O)(=O)c2cccs2)cc1)c1ccncc1	0.33	-0.09
CCOc1ccc(C2C(C#N)=C(N)Oc3cc(C)n(Cc4ccco4)c(=O)c32)cc1OC (stereo unspecified)	1.1	0.76

# More results.
compound	KCNQ2 enhance	KCNQ2 enhance baseline
O=C(C1CCN(Cc2ccc(Cl)cc2)CC1)N1CCN(Cc2ccc3c(c2)OCO3)CC1	0.94	-1.4
CC(C)(C)NC(=O)c1ccc2c(c1)C(=O)N(Cc1ccco1)C2=O	0.23	-0.05
O=C(O)CCC(=O)Nc1sc2c(c1C(=O)NC1CCCC1)CCCC2	0.01	-0.69
COc1ccc(C(=O)NNC(=O)c2cnccn2)cc1[N+](=O)[O-]	0.19	0.1
COc1ccc(N(CC(=O)Nc2ccc(F)c(F)c2)S(=O)(=O)c2c(C)[nH]c(=O)[nH]c2=O)cc1	2.5	-1.2
COc1cc(C2NC(=O)NC(C)=C2C(=O)OC(C)(C)C)ccc1OCC(N)=O (stereo unspecified)	0.03	1.6
c1nnc(NC2=NCCCCC2)s1	0.89	-0.14
CCN1CCCC1CNC(=O)c1ccccc1Cl (stereo unspecified)	0.02	0.12
CC(=O)NS(=O)(=O)c1cccnc1Nc1cccc(Cl)c1C	0.74	-0.48
COc1ccc(CNC(=O)CN2CCN(c3ccc(F)cc3)CC2)cc1	1.2	1.4

# Other structures.
compound	KCNQ2 enhance	KCNQ2 enhance baseline
CCCCOC(=O)/C=C\C(=O)NC(N)=O	0.64	1.2
CCC(=O)Nc1cc2c(C)cc(=O)oc2cc1C	0.33	0.18
N#Cc1c(N)n[nH]c1Cc1cccc2ccccc12	0.84	0.22
CC(=O)c1ccccc1C(=O)N1CCCC(C(=O)c2ccc(C(F)(F)F)cc2)C1 (stereo unspecified)	0.79	-0.79
COc1ccc(N2CCN(CC(=O)NC(=O)NCc3ccco3)CC2)cc1	2	0.11
CCOc1cccc(OCCCNCCCOC)c1	0.12	0.21
CCCc1nnc(SCC(=O)Nc2ccc(NC(C)=O)cc2)n1-n1cccc1	0.22	-1.2
O=C(NCC(=O)N1CCN(S(=O)(=O)/C=C/c2ccccc2)CC1)c1ccccc1F	0.02	-0.04
COCc1ccc(CN2CCC(n3nccc3NC(=O)CCCc3ccccc3)CC2)o1	0.14	0.89
CCOC(=O)c1cnc2c(CC)cccc2c1NCCN1CCOCC1	3	-1.9

# Continued.
compound	KCNQ2 enhance	KCNQ2 enhance baseline
Cc1ccc(NC(=O)COC(=O)CCc2ccccc2)c(Cl)c1	0.46	0.26
COc1ccc(CCNC(=O)c2c(C)noc2C)cc1	0.39	1.8
COc1ccc2[nH]c(=O)c(CN(C(=O)c3cccnc3)c3ccc(C)cc3C)cc2c1	0.05	1.9
CCc1ccc(NC(=O)C2CCN(S(=O)(=O)c3ccc4c(c3)NC(=O)C(C)S4)CC2)cc1 (stereo unspecified)	0.62	-0.5
COc1cc2c(C(=O)N3CCN(c4cccc(Cl)c4)CC3)cn(C)c(=O)c2cc1OC	0.01	0.25
Cc1ccc2c(c1)C(C)CC(C)(C)N2C(=O)CN1CCN(C)CC1 (stereo unspecified)	1.4	-1.7
CCO[C@@H]1OC(C(=O)N2CCN(Cc3ccccc3)CC2)=C[C@H](c2coc3ccccc3c2=O)[C@H]1CCCO	1	0.21
CC(=O)c1sc(-c2ccc(F)cc2)cc1NS(=O)(=O)c1ccc(C)cc1	0.29	0.68
O=C1CC(C(=O)N2CCN(c3ccccn3)CC2)CN1Cc1ccccc1Cl (stereo unspecified)	0.08	0
N#CCCN(Cc1ccccc1)C(=O)Nc1ccc2c(c1)CCO2	0.35	0.56

# Further records.
compound	KCNQ2 enhance	KCNQ2 enhance baseline
O=C(c1ccncc1)c1nccn1-c1ccccn1	0.37	-0.24
CCN(CC)CCOC(=O)c1cccc(OC)c1	1.3	0.01
Cc1cc2cc(CN(CC3CCCO3)C(=S)NCc3ccco3)c(=O)[nH]c2cc1C (stereo unspecified)	0.3	0.53
COc1ccc(N2CCN(C(=O)c3cc(C)oc3C)CC2)cc1	0.51	-1.6
CCOc1ccccc1C1CC(=O)NC2=C1C(=O)CC(C)(C)C2 (stereo unspecified)	1.9	0.18
COc1ccc([N+](=O)[O-])cc1N(CC(=O)O)S(C)(=O)=O	0.39	-0.76
CCN(CC)CCNC(=O)C(=O)NCC1OCCN1S(=O)(=O)c1cccs1 (stereo unspecified)	0.01	0.45
CCc1ccccc1N1C(=O)C2C3C=CC(CC3)C2C1=O (stereo unspecified)	0.54	-0.04
Cc1ccc(C(=O)CNc2cccc(Cl)c2)cc1	0.12	1.2
CCOc1ccc(N2C(=O)CC(Cc3cc(C)cc(C)c3)C2=O)cc1 (stereo unspecified)	0.24	-1.3

# Copied from the list:
# KCNQ2 enhance with CCOc1ccc(N2C(=O)CC(Cc3cc(C)cc(C)c3)C2=O)cc1 (stereo unspecified) : 0.24
# KCNQ2 enhance baseline with COc1ccc([N+](=O)[O-])cc1N(CC(=O)O)S(C)(=O)=O : -0.76
# KCNQ2 enhance with COc1ccc(N2CCN(C(=O)c3cc(C)oc3C)CC2)cc1 : 0.51
# KCNQ2 enhance baseline with CCN(CC)CCOC(=O)c1cccc(OC)c1 : 0.01
# KCNQ2 enhance with CCc1ccccc1N1C(=O)C2C3C=CC(CC3)C2C1=O (stereo unspecified) : 0.54

# Carrying on:
compound	KCNQ2 enhance	KCNQ2 enhance baseline
Cc1ccc(/C=C/C(=O)O)cc1S(=O)(=O)NCCCO	0.56	1
Fc1cccc(NC(=S)NCc2ccccc2Cl)c1	0.99	0.68
N#CCCN(C(=O)COC(=O)CNC(=O)C12CC3CC(CC(C3)C1)C2)c1ccccc1	0.04	-1.1
CCOc1ccc(NC(=O)COc2ccc(C(=O)N3CCC(C(N)=O)CC3)cc2OC)cc1	1.1	-0.97
CCOC(=O)c1c(S(=O)(=O)N(C)C2CCCCC2)c(C)n(C)c1C	0.19	1
CSCCC(NS(=O)(=O)c1cc(C(=O)O)ccc1Cl)C(=O)O (stereo unspecified)	1.4	-0.85
Cc1cc(C)n2c(nc3ccccc32)c1C(=O)NN	0.71	0.91
CNC(=S)Nc1ccc([N+](=O)[O-])cc1	0.06	3.5
O=C(NCc1ccco1)c1ccc(COCC(F)(F)C(F)F)cc1	2.8	-1.2
